# Bioassay records as filed in PubChem BioAssay.
# Ecoli rRNA inh: inhibitors of bacterial rRNA selective over humanized ribosomes | hit rate 1.6% among 350,000 | GFP signal change (wild-type ribosome), % (test concentration not listed) | E. coli WT GFP vs humanized-ribosome RFP mutants, fluorescence, 24 h; active compounds read low; DMSO median 0, no signal -100 | AID 720706;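 active = significant combined selectivity score with lowered wild-type GFP, culture density cut under 30%, mutant RFP and density less affected; inactive = any of these conditions unmet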; also: one replicate is shown; some compounds called inactive have numbers as strong as hits
# Ecoli rRNA inh OD600: also measured in Ecoli rRNA inh; calls as there; OD600 change, %; measured here: OD600 growth;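 optical density of the mix in the first replicate; 0 = DMSO median and -100 = no signal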
# Ecoli rRNA inh RFP: further read-out of Ecoli rRNA inh, marked with its call; RFP signal change, %; measured here: RFP humanized mutant strains;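 first replicate; 0 = DMSO median and -100 = no signal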
# The depositor's hits bear a star. An excerpt (hit frequency here may not be typical).
Ecoli rRNA inh	Ecoli rRNA inh OD600	Ecoli rRNA inh RFP	SMILES
12.0	19.2	7.4	COc1cccc(CNC(=O)[C@H]2CCCN2C(=O)[C@H]2CCCN2C(=O)c2cccs2)c1
0.9	6.2	-1.3	CC(C)NC(=O)Nc1ccc2c(c1)CC(=O)N([C@H](C)CO)C[C@H](C)[C@H](CN(C)Cc1ccncc1)O2
1.3	10.5	-2.3	COc1ccc(C(=O)Nc2ccc3c(c2)OCO3)cc1S(=O)(=O)N1CCOCC1
-7.0	-12.6	8.4	C[C@@H]1CN([C@H](C)CO)C(=O)c2cccc(NC(=O)c3ccc(-c4nccs4)cc3)c2O[C@H]1CN(C)Cc1ccccc1
-6.9	-11.5	1.7	COc1ccc(NC(=O)Nc2ccc3c(c2)[C@@H]2C[C@@H](CC(=O)N4CCc5ccccc5C4)O[C@H](CO)[C@@H]2O3)cc1
-40.0	-68.7	-11.3	O=C(c1[nH]c(C(F)(F)F)nc1-c1ccccc1)N1CCC(Cc2ccccc2)CC1
3.6	11.5	0.7	C[C@@H]1CN([C@H](C)CO)C(=O)c2cccc(NC(=O)NC3CCCCC3)c2O[C@@H]1CN(C)S(=O)(=O)c1cn(C)cn1
0.8	0.7	2.7	CC(C)N(C)c1ncnc2c1ncn2[C@H]1CN(Cc2ccc(-c3ccccc3)cc2)C[C@@H](CO)O1
2.0	4.8	-1.6	CO[C@H]1CN(C)C(=O)c2ccc(NC(=O)c3cccc(F)c3)cc2OC[C@@H](C)NC[C@@H]1C
3.3	-4.3	1.5	C/C=C/c1cnc2c(c1)C(=O)N([C@H](C)CO)C[C@H](C)[C@@H](CN(C)C(=O)Nc1ccc(C(F)(F)F)cc1)O2
3.5	10.5	-1.6	COCC#Cc1cnc2c(c1)C(=O)N([C@H](C)CO)C[C@H](C)[C@H](CN(C)Cc1ccccc1F)O2
2.7	3.5	1.0	COc1ccc(C2=Nc3ccccc3N(C(=O)c3ccc4c(c3)OCO4)C2C(=O)NCc2ccccc2)cc1 (stereo unspecified)
0.7	-1.1	-1.3	COc1ccc(NC(=O)Nc2ccc3c(c2)C(=O)N([C@H](C)CO)C[C@H](C)[C@@H](CN(C)C(=O)CCCN(C)C)OCCCC[C@@H](C)O3)cc1
5.7	8.6	-1.8	C[C@@H]1CN([C@H](C)CO)C(=O)c2cc(C#CC3CCCC3)cnc2O[C@@H]1CN(C)C(=O)Cc1ccccn1
-1.6	3.9	-1.1	COc1ccc(C#Cc2cnc3c(c2)C(=O)N([C@H](C)CO)C[C@H](C)[C@H](CN(C)C(=O)Nc2cccc4ccccc24)O3)cc1OC
-0.4	-3.0	-1.0	Cc1ccc(S(=O)(=O)Nc2ccc3c(c2)C(=O)N([C@@H](C)CO)C[C@H](C)[C@@H](CN(C)S(=O)(=O)c2cccs2)OCCCC[C@H](C)O3)cc1
-19.2*	10.6*	-0.4*	O=C(Nc1ccccc1F)N1CCCCN2[C@@H](CO)[C@H](c3ccc(-c4cccnc4)cc3)[C@@H]2C1
-4.8	-21.9	-8.2	COc1ccc(NC(=O)c2cccc3c(-c4cnn(C)c4)coc23)cc1
-3.3	-1.3	-3.1	CC(C)(C)c1cccc(N/C(=C\C(=O)c2ccccc2)c2ccccc2)c1
-0.1	0.7	0.4	Cc1ccc(S(=O)(=O)Nc2cccc3c2O[C@@H](CN(C)C(=O)Nc2cccc4ccccc24)[C@H](C)CN([C@@H](C)CO)C3=O)cc1
7.6	4.4	0.3	COc1ccc(NC(=O)N(C)C[C@H]2Oc3c(NS(=O)(=O)c4ccccc4)cccc3C(=O)N([C@H](C)CO)C[C@@H]2C)cc1
-1.0	-12.9	2.0	C[C@@H]1CN([C@@H](C)CO)S(=O)(=O)c2ccc(-c3ccncc3)cc2O[C@H]1CN(C)C(=O)c1cccc(F)c1
2.1	6.5	-2.5	C[C@H](CO)N1C[C@H](C)[C@@H](CN(C)Cc2ccc(Oc3ccccc3)cc2)OCc2ccccc2-c2c(n(C)c3ccccc23)C1=O
-2.6	-6.2	1.5	C[C@@H]1CCCCO[C@H](CN(C)C(=O)CCC(F)(F)F)[C@H](C)CN([C@@H](C)CO)C(=O)c2cc(NC(=O)Cc3ccccc3)ccc2O1
-2.2	-13.7	-1.3	CC(=O)Nc1ccc(C(=O)N2CCCCC2c2cc(C(=O)Nc3cccc4c3CCCC4)no2)cc1 (stereo unspecified)
-0.3	-2.8	-4.0	C[C@@H]1CCCCO[C@@H](CN(C)S(=O)(=O)c2ccccc2)[C@@H](C)CN([C@@H](C)CO)C(=O)c2cc(NC(=O)Nc3ccc4c(c3)OCO4)ccc2O1
2.7	11.9	-2.4	O=C1CN(S(=O)(=O)c2ccccc2)C[C@H]2[C@@H](c3ccc(C#Cc4ccccc4)cc3)[C@@H](CO)N12
1.6	9.1	-0.9	CN(C)C(=O)C[C@H]1C[C@H]2c3cc(NC(=O)c4cccnc4)ccc3O[C@H]2[C@H](CO)O1
3.5	7.6	0.3	C[C@H](CO)N1C[C@H](C)[C@H](CN(C)C(=O)Nc2cccc3ccccc23)Oc2ncc(C#Cc3ccc(C(F)(F)F)cc3)cc2C1=O
-0.3	0.3	-1.5	CO[C@H]1CN(C)C(=O)c2ccc(NC(=O)C3CCOCC3)cc2OC[C@H](C)N(Cc2cccnc2)C[C@@H]1C
4.1	5.9	-2.4	CC(=O)N(C)C[C@H]1OCc2ccccc2-c2ccccc2C(=O)N([C@H](C)CO)C[C@@H]1C
2.1	1.5	-1.7	COCCNC(=O)[C@H]1[C@H](CO)[C@H]2Cn3c(ccc(-c4ccccc4F)c3=O)[C@@H]1N2S(C)(=O)=O
-27.2	-24.6	-4.3	CCC(c1nnnn1-c1ccc2c(c1)OCCO2)N1CCN(c2ccccc2OC)CC1 (stereo unspecified)
1.7	-11.2	1.5	COc1ccc2c3c(n(C)c2c1)[C@@H](CO)N(CC1CC1)CC31CCN(C(=O)CC2CC2)CC1
3.2	-0.5	-1.6	Cc1noc(C)c1S(=O)(=O)Nc1ccc2c(c1)C(=O)N([C@H](C)CO)C[C@H](C)[C@H](CN(C)CC1CC1)O2
-27.6*	-14.9*	5.4*	O=C1c2ccccc2C(c2nnnn2Cc2ccccc2)N1CCc1ccc(O)cc1 (stereo unspecified)
-2.6	-4.0	0.3	CO[C@H]1CN(C)C(=O)c2cc(NC(=O)Nc3c(C)noc3C)ccc2OC[C@@H](C)N(CCC(F)(F)F)C[C@@H]1C
-24.0	-65.3	-1.3	Cc1ccc(-c2cnc(C(O)c3cc(C)cc(C)c3)[nH]2)cc1 (stereo unspecified)
1.0	14.3	0.0	C[C@H](NC(=O)C[C@@H]1C[C@H]2c3cc(NC(=O)CC4CC4)ccc3O[C@H]2[C@@H](CO)O1)c1ccccc1
-20.9	-28.8	1.7	C[C@@H]1CN([C@@H](C)CO)S(=O)(=O)c2ccc(-c3cccc(C#N)c3)cc2O[C@H]1CN(C)Cc1ccccn1
10.0	-1.2	4.4	COc1cc(C(=O)N2CCCCC2c2cc(C(=O)N3CCOCC3)no2)cc(OC)c1C (stereo unspecified)
-1.1	9.6	0.2	O=C(c1ccccn1)N1CC[C@@H]2[C@H]1c1cc(C#Cc3cccnc3)ccc1N[C@@H]2CO
1.2	14.0	-3.7	COc1cccc(S(=O)(=O)N(C)C[C@@H]2Oc3cc(C#CCC(C)C)ccc3S(=O)(=O)N([C@@H](C)CO)C[C@@H]2C)c1
-7.4	-5.8	0.5	C[C@H]1CN([C@@H](C)CO)C(=O)c2cc(-c3cccnc3)cnc2O[C@@H]1CN(C)C(=O)Nc1ccc(C(F)(F)F)cc1
6.1	21.4	-1.2	C[C@H](CO)N1C[C@H](C)[C@@H](CN(C)Cc2ccc3c(c2)OCO3)Oc2ncc(Br)cc2C1=O
3.8	1.0	-3.7	CC(=O)N1CC(=O)N2[C@@H](CO)[C@H](c3ccc(C#Cc4cccnc4)cc3)[C@@H]2C1
2.8	0.4	1.4	C[C@@H]1CCCCO[C@@H](CN(C)CC2CC2)[C@H](C)CN([C@@H](C)CO)C(=O)c2cc(NC(=O)Nc3ccc4c(c3)OCO4)ccc2O1
3.5	8.5	-2.9	CNc1cncc(-c2ccc(OC)cc2OC)n1
0.8	0.1	-0.9	C[C@@H]1CN([C@@H](C)CO)C(=O)c2c(c3ccccc3n2C)-c2ccccc2CO[C@@H]1CN(C)C(=O)NC1CCCCC1
-0.8	-1.1	-0.7	CCC(=O)Nc1ccc2c(c1)C(=O)N(C)C[C@@H](OC)[C@@H](C)CN(C(C)=O)[C@@H](C)CO2

# (continued)
Ecoli rRNA inh	Ecoli rRNA inh OD600	Ecoli rRNA inh RFP	SMILES
0.3	-5.8	0.1	C[C@@H]1CN([C@@H](C)CO)C(=O)c2cc(C#Cc3ccccc3F)cnc2O[C@@H]1CN(C)S(C)(=O)=O
4.7	-1.5	-3.5	CN(C)C(=O)C[C@H]1CC[C@H]2[C@H](COc3ccc(NC(=O)C4CCC4)cc3C(=O)N2C)O1
2.3	1.0	-0.7	CCC(=O)N(C)C[C@@H]1Oc2cc(-c3cccc(C#N)c3)ccc2S(=O)(=O)N([C@@H](C)CO)C[C@@H]1C
10.0	-7.5	32.0	Cc1cc(Br)cn2c(Cc3cccc(F)c3)c(-c3cccc(Cl)c3)nc12
-4.0	2.0	-0.9	CC(=O)N1[C@H](CN(C(=O)c2cccc(F)c2)C(C)C)[C@@H](c2ccccc2)[C@@H]1CO
4.3	3.9	-0.5	CC(=O)N1C[C@@H]2[C@H](c3ccccc31)[C@@H](CO)N2C(=O)c1ccc(F)cc1
2.2	2.7	-1.1	CCCN1C[C@@H](C)[C@@H](OC)CN(C)C(=O)c2cc(NC(=O)C3CCOCC3)ccc2OC[C@@H]1C
1.6	-2.8	1.5	COCCNC(=O)C[C@H]1CC[C@H]2[C@@H](COc3ccc(NC(=O)c4cc(C)on4)cc3C(=O)N2C)O1
1.5	1.6	-1.4	CO[C@@H]1CN(C)C(=O)c2cc(NS(=O)(=O)c3cn(C)cn3)ccc2OC[C@@H](C)N(C)C[C@H]1C
3.9	11.3	-3.1	COc1cccc(C#Cc2cnc3c(c2)C(=O)N([C@@H](C)CO)C[C@H](C)[C@H](CN(C)C(=O)C2CCOCC2)O3)c1
2.2	-0.7	-0.2	C[C@H]1CN([C@@H](C)CO)C(=O)c2cccc(NS(=O)(=O)c3ccc(F)cc3)c2O[C@@H]1CN(C)Cc1ccc(-c2ccccc2)cc1
0.6	2.1	-3.1	CO[C@@H]1CN(C)C(=O)c2cc(NC(=O)C3CCC3)ccc2OC[C@H](C)N(Cc2ccc(F)cc2)C[C@@H]1C
2.7	2.3	-0.7	COc1ccc(NC(=O)Nc2cccc3c2O[C@@H](CN(C)C(=O)Nc2ccc(F)cc2)[C@@H](C)CN([C@H](C)CO)C3=O)cc1
1.6	10.1	-7.3	Cc1noc(C)c1NC(=O)N1C[C@H](O)COC[C@H]2O[C@H](CC(=O)NCC3CCCCC3)CC[C@@H]21
-1.0	0.1	-2.5	CCCC(=O)N1CCC2(CC1)CN(C(=O)C1CCCC1)[C@H](CO)c1[nH]c3cc(OC)ccc3c12
3.3	-2.9	0.3	COCC#Cc1ccc2c(c1)O[C@H](CN(C)C(=O)C1CCC1)[C@H](C)CN([C@@H](C)CO)S2(=O)=O
2.6	2.3	-1.1	C[C@H]1CN([C@@H](C)CO)C(=O)c2cc(N(C)C)ccc2O[C@@H]1CN(C)C(=O)Nc1ccccc1
2.7	0.9	-0.8	COCC(=O)Nc1ccc2c(c1)C(=O)N(C)[C@H]1CC[C@@H](CC(=O)OC)O[C@@H]1CO2
1.7	4.6	-2.0	C[C@@H]1CN([C@H](C)CO)C(=O)Cc2cc(NC(=O)Cn3cnnn3)ccc2O[C@H]1CN(C)C(=O)Nc1ccccc1
-2.4	-0.8	10.3	CO[C@H]1CN(C)C(=O)c2ccc(NS(=O)(=O)c3ccc(Oc4ccccc4)cc3)cc2OC[C@@H](C)NC[C@H]1C
12.8	9.8	1.3	Cc1cccc(C)c1NC(=O)C(c1cccc2ccccc12)n1c(=O)c(-c2cc3ccccc3[nH]2)nc2ccccc21 (stereo unspecified)
0.4	5.5	0.7	CCCN1[C@@H]2c3ccc(-c4cccc(F)c4)c(=O)n3C[C@H]1[C@H](CO)[C@H]2C(=O)NCC
-18.8	-59.5	33.0	C[C@H]1CN([C@@H](C)CO)C(=O)c2cc(C#CC3CCCCC3)cnc2O[C@@H]1CN(C)Cc1cccnc1
10.8	2.6	-1.0	COC(=O)[C@@]12C[C@@H](CC(=O)NCC34CC5CC(CC(C5)C3)C4)C(=O)N(Cc3ccccc3)C1=CCC(C)(C)C2
2.7	0.9	0.7	CO[C@H]1CN(C)C(=O)c2cc(NC(=O)Nc3c(C)noc3C)ccc2OC[C@H](C)N(C)C[C@H]1C

# Quoted at random: 2 entries already listed.
Ecoli rRNA inh	Ecoli rRNA inh OD600	Ecoli rRNA inh RFP	SMILES
2.2	-0.7	-0.2	C[C@H]1CN([C@@H](C)CO)C(=O)c2cccc(NS(=O)(=O)c3ccc(F)cc3)c2O[C@@H]1CN(C)Cc1ccc(-c2ccccc2)cc1
0.4	5.5	0.7	CCCN1[C@@H]2c3ccc(-c4cccc(F)c4)c(=O)n3C[C@H]1[C@H](CO)[C@H]2C(=O)NCC

# Record cards, from the list above. Order of values: Ecoli rRNA inh | Ecoli rRNA inh OD600 | Ecoli rRNA inh RFP
# C[C@H]1CN([C@@H](C)CO)C(=O)c2cccc(NS(=O)(=O)c3ccc(F)cc3)c2O[C@@H]1CN(C)Cc1ccc(-c2ccccc2)cc1 as listed: 2.2 | -0.7 | -0.2
# CCCC(=O)N1CCC2(CC1)CN(C(=O)C1CCCC1)[C@H](CO)c1[nH]c3cc(OC)ccc3c12 as listed: -1.0 | 0.1 | -2.5
# C[C@H]1CN([C@@H](C)CO)C(=O)c2cc(N(C)C)ccc2O[C@@H]1CN(C)C(=O)Nc1ccccc1 as listed: 2.6 | 2.3 | -1.1
# CO[C@H]1CN(C)C(=O)c2ccc(NS(=O)(=O)c3ccc(Oc4ccccc4)cc3)cc2OC[C@@H](C)NC[C@H]1C as listed: -2.4 | -0.8 | 10.3
